# Screening data: PubChem, National Center for Advancing Translational Sciences (NCATS)
# HPGD block = blocks human HPGD enzyme activity; purified HPGD, NADH fluorescence kinetic, PGE2 substrate; hit rate 4.3% among 150,000; Potency, µM, for inactives: top-dose activity change, negative = inhibition, hits mostly inhibitors; active = well fitted inhibition curve with a large enough effect (not every such curve was filed as active); inconclusive = small, poorly fitted or top-dose-only effect, or another doubt; inactive = no such curve, though single readings can be large or run the other way;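 further: top concentration of the series not given in the record; plate controls included wells without enzyme; inactives centre near -10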
# Target sequence (P15428 whole entry, looked up): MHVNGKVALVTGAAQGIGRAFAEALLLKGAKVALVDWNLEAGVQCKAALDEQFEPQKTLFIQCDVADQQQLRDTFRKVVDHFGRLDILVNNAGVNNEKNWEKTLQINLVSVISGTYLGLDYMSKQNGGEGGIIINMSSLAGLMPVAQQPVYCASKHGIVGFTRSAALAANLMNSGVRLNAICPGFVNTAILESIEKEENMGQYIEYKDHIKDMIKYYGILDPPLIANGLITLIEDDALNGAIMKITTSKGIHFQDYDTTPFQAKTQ
#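 NADH formation kinetics: reaction with 30 uM PGE2 and 1 mM NAD+ (final), 20 nM enzyme, Tris-HCl pH 8 with Tween 20, after 15 min compound preincubation at room temperature. Fluorescence change, last versus first of five reads.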
# * = called active by the depositor; ? = inconclusive. On the % scale 0 is the no-effect control and ±100 the full control effect; potency means the concentration at half of the fitted maximal effect.
HPGD block	molecule
-6.5%	O=S(=O)(c1ccccc1)N1CCC[C@@]2(CCN(Cc3ccccc3)C2)C1
-11.8%	CCCCn1c(N)c(-c2nc3ccccc3o2)c2c([N+](=O)[O-])nn(CC)c(=O)c21
-3.6%	COc1ccc(S(=O)(=O)Nc2cc(C(C)C)c(O)cc2C)cc1
-21.8%	O=C1CC(c2ccc3c(c2)OCO3)c2cc3c(cc2N1)OCCO3 (stereo unspecified)
?	CCc1cccc2c(C(=O)COC(=O)c3nn(C)c(=O)c4ccccc34)c[nH]c12
-2.8%	Cc1ccc(CNC(=O)CS(=O)(=O)CC(=O)O)cc1
?	CCOC(=O)c1cc2c(=O)n3ccccc3nc2n(CCCOC)c1=NC(C)=O
-0.1%	CSc1ccc(CNCCCN(C)C)cc1
-1.3%	CCOc1ccc2nc(N3CCC(C(=O)N4CCN(C(=O)c5ccco5)CC4)CC3)sc2c1
1.4%	COC(=O)c1c(C(=O)OC)c(C)n(Cc2ccco2)c1C
-13.2%	Cc1nn(C)c(C)c1S(=O)(=O)N(CC(=O)NCc1cccs1)c1ccc(C(C)C)cc1
-12.5%	COc1ccc(-n2c(C)cc(-c3csc(N)n3)c2C)cc1
-18.6%	Cc1nc(SCC(=O)N(C)C2CCCCC2)[nH]c(=O)c1Cc1ccccc1
-21.6%	CCc1cccc2c(C(=O)COC(=O)c3c(C)noc3C)c[nH]c12
-19.1%	CC1=C(C(=O)OC2CCCCC2)C(c2cccs2)n2c(nc3ccccc32)N1 (stereo unspecified)
?	Cn1c(=O)c(C(=O)COC(=O)c2cc(-c3ccccc3)nc3ccccc23)c(N)n(Cc2ccccc2)c1=O
-4.3%	CCOc1ccc(C(=O)N(C)C2CCS(=O)(=O)C2)cc1 (stereo unspecified)
-5.5%	COc1ccc(Cc2nnc(SCC(=O)NCCc3ccccc3)o2)cc1
-0.5%	O=[N+]([O-])c1ccc(Cl)cc1Sc1ccccn1
-16.4%	CCN(CC)c1nc(=S)nc(NC(C)(C)C)[nH]1
-15.8%	c1ccc(COc2cccc(CNCc3cccs3)c2)cc1
-15.1%	O=C(Nc1ncc2c(n1)-c1ccccc1CC2)c1ccccc1
-19.2%	CCN(CC)c1ccc(CNc2ccc(Br)cn2)cc1
-15.3%	CCOC(=O)c1cccc(C(=O)OCC)n1
-2.9%	COC(=O)COn1c(SC(C)C)nc2ccccc2c1=O
-8.8%	COC(=O)c1ccc(N2CCN(S(=O)(=O)c3ccc(C)cc3)CC2)c([N+](=O)[O-])c1
-17.7%	CN(C)c1ccnc(-n2cccc2/C=N/OCc2ccc(F)cc2Cl)c1C#N
-13.0%	CCN(CC)CC1CCN(c2ncc3ncnc(Nc4ccc(F)c(Cl)c4)c3n2)CC1
?	O=C(O)C1CCCN1S(=O)(=O)c1ccc2ccccc2c1 (stereo unspecified)
-12.2%	CCOC(=O)c1c(C)nc2ccccc2c1C

# Part of the list above, as tab-separated lines:
canonical_smiles	HPGD block
COC(=O)c1c(C(=O)OC)c(C)n(Cc2ccco2)c1C	1.4%
Cc1nn(C)c(C)c1S(=O)(=O)N(CC(=O)NCc1cccs1)c1ccc(C(C)C)cc1	-13.2%
COc1ccc(-n2c(C)cc(-c3csc(N)n3)c2C)cc1	-12.5%
Cc1nc(SCC(=O)N(C)C2CCCCC2)[nH]c(=O)c1Cc1ccccc1	-18.6%
CCc1cccc2c(C(=O)COC(=O)c3c(C)noc3C)c[nH]c12	-21.6%
CC1=C(C(=O)OC2CCCCC2)C(c2cccs2)n2c(nc3ccccc32)N1 (stereo unspecified)	-19.1%
Cn1c(=O)c(C(=O)COC(=O)c2cc(-c3ccccc3)nc3ccccc23)c(N)n(Cc2ccccc2)c1=O	?
CCOc1ccc(C(=O)N(C)C2CCS(=O)(=O)C2)cc1 (stereo unspecified)	-4.3%
COc1ccc(Cc2nnc(SCC(=O)NCCc3ccccc3)o2)cc1	-5.5%
O=[N+]([O-])c1ccc(Cl)cc1Sc1ccccn1	-0.5%
CCN(CC)c1nc(=S)nc(NC(C)(C)C)[nH]1	-16.4%
c1ccc(COc2cccc(CNCc3cccs3)c2)cc1	-15.8%
O=C(Nc1ncc2c(n1)-c1ccccc1CC2)c1ccccc1	-15.1%
CCN(CC)c1ccc(CNc2ccc(Br)cn2)cc1	-19.2%
CCOC(=O)c1cccc(C(=O)OCC)n1	-15.3%
COC(=O)COn1c(SC(C)C)nc2ccccc2c1=O	-2.9%
COC(=O)c1ccc(N2CCN(S(=O)(=O)c3ccc(C)cc3)CC2)c([N+](=O)[O-])c1	-8.8%
CN(C)c1ccnc(-n2cccc2/C=N/OCc2ccc(F)cc2Cl)c1C#N	-17.7%
CCN(CC)CC1CCN(c2ncc3ncnc(Nc4ccc(F)c(Cl)c4)c3n2)CC1	-13.0%

# The listing continues:
HPGD block	molecule
-24.2%	O=C(Nc1nnc(CCN2CCOCC2)s1)c1ccccc1
-3.1%	Cc1onc(-c2ccccc2)c1C(=O)N1CCN(CCc2ccccc2)CC1
-12.0%	CCCCOC(=O)NC1CCS(=O)(=O)C1 (stereo unspecified)
2.3%	CC(C)C(NC(=O)C1CCCCC1)C(=O)Nc1ccccn1 (stereo unspecified)
-5.4%	C/C(CC1CC(COCC(C)C)OC1=O)=N\NC(N)=S (stereo unspecified)
1.2%	C#CCn1c(S(=O)(=O)Cc2ccccc2Cl)nc(-c2ccccc2)c1-c1ccccc1
-13.9%	Clc1cccc(/C=N/Nc2ncnc3ccccc23)c1
4.3%	COc1cc(/C=N/NC(=O)COc2ccccc2C)ccc1OC(=O)c1cccs1
?	COCc1cc(C)n(CC(=O)Nc2ccccc2C(=O)OC)c(=O)c1C#N
-1.9%	O=S(=O)(NCCO)c1cccc2cccnc12
-6.5%	O=c1[nH]ncn1-c1ccccc1C(F)(F)F
-3.5%	CC(=O)Nc1ccc(NS(=O)(=O)c2ccc3ccccc3c2)cc1
-21.1%	Cc1ccc2nc(SC(C)C(=O)NCc3ccco3)[nH]c2c1 (stereo unspecified)
-16.3%	CCCN(CCC)S(=O)(=O)c1cccc(C(=O)Nc2ccc3c(c2)OCO3)c1
-5.4%	CCN(CCCNC(=O)COc1cc(=O)n(C)c2ccccc12)c1cccc(C)c1
-1.8%	Cc1ccc(S(=O)(=O)N2CCC(=O)N(CCOC(=O)NCc3ccccc3)CC2)cc1
-11.7%	CCN(CC)S(=O)(=O)c1cccc(NC(=O)/C=C/c2cccc([N+](=O)[O-])c2)c1
?	Cc1cccc(C2=NN(c3ccccc3)[C@@H](C(=O)N3CCOC3=O)[C@@H]2C)c1
-14.4%	CCn1c(SCC(=O)N/N=C/C=C/c2ccco2)nc2ccccc21
-12.3%	CCOC(=O)C1CCCN(c2nnnn2-c2ccccc2)C1 (stereo unspecified)
-6.3%	COc1cc2c(cc1OC)C1(Nc3c-2c(-c2ccccc2)nn3-c2ccccc2)C(=O)Nc2ccccc21 (stereo unspecified)
-6.8%	C=CCOc1ccc(/C(O)=C2/C(=O)C(=O)N(CCCn3ccnc3)C2c2cccs2)cc1 (stereo unspecified)
-10.5%	CC(C(=O)OCC(=O)Nc1ncc(Cl)cc1Cl)N1C(=O)c2ccccc2C1=O (stereo unspecified)
-21.8%	CCC(CC)C(=O)Nc1cccc(C(=O)c2ccccc2)c1
-14.0%	CN(C)CCCN1CCC2(CCC(C(C)(C)C)CC2)CC1
-14.1%	O=C(CCS(=O)(=O)c1ccc(Cl)cc1)NCCN1C(=O)S/C(=C\c2ccccc2F)C1=O
-5.5%	O=C(CCS(=O)(=O)c1cccc2nsnc12)N1CCN(Cc2ccc3c(c2)OCO3)CC1
-0.9%	COc1cccc(N2CCN(Cc3nc(N)nc(N4CCCc5ccccc54)n3)CC2)c1
-10.1%	CN(C)c1ccc(NC(=O)c2cccc(N3C(=O)C4C5C=CC(C5)C4C3=O)c2)cc1 (stereo unspecified)
-16.8%	NC(=O)c1ccccc1NC(=O)CCc1ccccc1

# Carrying on:
HPGD block	molecule
-13.8%	Cc1sc(NC(=O)c2ccco2)c(C(c2cccnc2)N2CCCC2)c1C (stereo unspecified)
?	COc1cccc(OCc2cc(C3Nc4ccccc4C(=O)N3Cc3ccco3)ccc2OC)c1 (stereo unspecified)
?	COc1ccc(OC)c(Nc2nc(N)nc(-c3cc4ccccc4o3)n2)c1
-8.6%	CCOC(=O)C1CCCN(Cc2ccc(OCC)cc2)C1 (stereo unspecified)
-3.8%	CCn1c(N)nc2ccccc21
?	Cc1ccccc1NC(=O)CNc1ccccc1C(=O)NCc1ccco1
-9.0%	COc1cccc(NC(=O)Cn2c(=O)c3c(ncn3Cc3ccccc3)n(Cc3ccccc3)c2=O)c1
?	CCOC(=O)c1cc(C#N)c(N2CCCC2)nc1-c1ccccc1
-13.6%	CCN(CC)c1ccc(C2=NNC(=O)CC2C)cc1[N+](=O)[O-] (stereo unspecified)
-11.2%	CN1CCN(S(=O)(=O)c2ccc3ccccc3c2)CC1
-8.9%	CC(=O)n1cc(-c2ccncc2)c2ccccc21
?	COCCn1c(=O)c(C)nc2cnc(N3CCNCC3)nc21
-8.6%	Cc1cc(NC(=O)CSc2nc3c(sc4ccccc43)c(=O)n2CCCN2CCOCC2)n[nH]1
-12.6%	Cc1c(Cl)c(C(=O)N2CCCC2)nn1C
-4.7%	CCCCN(C)C(=O)C1CCN(C/C(C)=C/c2ccccc2)CC1
-0.1%	CC(CCc1ccccc1)NC(=O)CSc1nnnn1C (stereo unspecified)
-11.3%	O=C(c1cccc(Cl)c1)N1CCC(=O)N(C(COCc2ccccc2)Cc2ccccc2)CC1 (stereo unspecified)
-13.5%	CCOc1ccccc1NC(=O)C1=C(C)NC(=S)NC1c1cccs1 (stereo unspecified)
?	CCN1CC=C2C(C#N)=C(N)C(C#N)(C#N)C(CCc3ccccc3)C2C1 (stereo unspecified)
-16.9%	COc1ccc(C(=O)N2CCc3ccccc32)cc1
-17.5%	O=C(O)c1ccccc1NN=C1CCCCC1
-5.4%	Cn1cccc1C(C(=O)NC1CCCCC1)N(C(=O)Cc1cccs1)C1CC1 (stereo unspecified)
-9.1%	C/C(CC(=O)Nc1cccc(Cl)c1)=N\NC(=O)Cc1ccc(Cl)cc1
-11.8%	COc1ccccc1NC(=S)Nc1cccc(F)c1
-15.0%	CCN(CC)S(=O)(=O)c1ccc(N2CCOCC2)c(NC(=O)Cc2cccc3ccccc23)c1
?	Cc1ccc(N(CC(N)=O)C2SC(=O)N(C)C2=O)cc1 (stereo unspecified)
-1.7%	COCCOc1nc2c(c(=O)n(C)c(=O)n2C)n1Cc1cccc(OC)c1
-24.1%	COc1ccc(-c2cc(C(=O)N3CCCc4ccccc43)no2)cc1
-4.3%	COc1cc(C(=O)NC2CCCCC2)ccc1OCc1ccc(Cl)cc1Cl
-12.5%	CCCOc1ccc(/C=C/C(=O)Nc2ccc([N+](=O)[O-])cc2C)cc1

# Next records follow:
HPGD block	molecule
-12.6%	Clc1ccc2ncnc(NCc3ccc4c(c3)OCO4)c2c1
-10.7%	O=C(CSc1ncnc2c1nnn2-c1ccc(F)cc1)N1CCN(c2ccccc2)CC1
?	CC(=O)Nc1ccc(S(=O)(=O)NCC(=O)OCc2cc(=O)oc3ccc4ccccc4c23)cc1
-3.8%	CC(=O)OC[C@]1(OC(C)=O)C[C@@]23CC[C@H]4[C@@](C)(CCC[C@@]4(C)C(=O)O)[C@@H]2CC[C@@H]1C3
-23.1%	Cc1ccc(CN(C(=O)Cn2nnc3ccccc32)C(C(=O)NCc2ccco2)c2cccs2)cc1 (stereo unspecified)
-10.5%	N/C(CCN1CCOCC1)=N/O
-19.8%	O=C(c1cc2ccccc2o1)N1CCN=C1SCc1cccnc1
-25.4%	Cc1ccc(-n2c(SCC(=O)N3CC(=O)Nc4ccccc43)nc3ccccc3c2=O)cc1C
-19.1%	Cc1cc(C(=O)NC(C)c2ccc3c(c2)OCO3)cs1 (stereo unspecified)
-1.6%	CCC(C)Sc1nc(O)cc(=O)[nH]1 (stereo unspecified)
-3.4%	Cc1csc(NC(=O)C2C3C=CC(C3)C2C(=O)O)n1 (stereo unspecified)
-4.0%	CC1CCC(NC(=O)C2CCN(C(=O)NC3CCCCC3)CC2)CC1 (stereo unspecified)
-8.4%	COC(=O)Cn1c(=O)n(CCc2ccccc2)c(=O)c2c3c(sc21)CCCC3
1.9%	O=C(NC1CCCC1)c1ccc(COCC(F)(F)C(F)F)o1
-8.3%	CN(C)CCCN1c2ccc(O)cc2Sc2ccc(Cl)cc21
-20.6%	CC(=O)C1=C(O)C(=O)N(c2nnn(C)n2)C1c1cccs1 (stereo unspecified)
-11.9%	CCCCCOc1ccc(C(=O)C(c2ccccc2)N2CCOCC2)cc1 (stereo unspecified)
?	O=S(=O)(Nc1cccc(-c2cn3cccnc3n2)c1)c1ccc(Cl)cc1
-17.8%	CCc1c(C)sc(NC(=O)c2cc(CC(C)C)on2)c1C#N
-14.2%	CCOc1ccccc1CSc1nc2ccccc2[nH]1
-9.6%	COc1ccc(-c2noc(C3CCCN(S(=O)(=O)c4cccc(Cl)c4)C3)n2)cc1OC (stereo unspecified)
-11.4%	COC(=O)C1=C(C)N(c2cccc(Cl)c2)C(=O)C1
-0.5%	O=S(=O)(c1cnc[nH]1)N1CCc2ccccc21
-14.6%	CCCCOC(=S)NC(=O)c1sc2ccccc2c1Cl
-7.8%	Cc1cc(C)n2c(SCC(=O)Nc3c(C)n(C)n(-c4ccccc4)c3=O)nnc2n1
-3.5%	CCOCCOC(=O)C1=C(C)N(C)C(=O)NC1c1ccccc1Cl (stereo unspecified)
-6.0%	CC1CCCC(N2C(=O)NC(NC(=O)c3ccco3)(C(F)(F)F)C2=O)C1C (stereo unspecified)
-9.3%	O=C(COC(=O)c1ccco1)Nc1ccc(Br)cc1
-4.4%	C[C@H]1OC(=O)CC[C@@H]2[C@]1(C)CCC1[C@@]2(C)CC[C@@]2(C)C3CC(C)(C)CC[C@]3(CO)CC[C@]12C (stereo partly specified)
-7.4%	O=c1oc(-c2ccccc2)nc2c1cnn2-c1ccccc1
-11.2%	COc1ccc(OC)c(NC(=O)NCc2ccc(F)cc2)c1

# This is a subset (hit frequency here may not be typical).
